HCMV UL50-53 inh: inhibitors of HCMV UL50-UL53 interaction, biochemical, HTRF. HCMV UL50-UL53 nuclear egress complex (human cytomegalovirus). normalized percent inhibition. inhibition, % (no concentration beside the values). 190,000 compounds, 0.15% hits. AID 1918969, 2023;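 active means both replicates at 50% or more, plus weaker picks with an unusually low signal ratio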;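 further: stock transfer was 100 nL into about 20 µL; 0% = negative control wells and 100% = wells with untagged competitor protein; inactives centre near -12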
Sa growth 42C: S. aureus growth inhibition at 42 and 30 °C, primary screen, LtaS inhibitor project, RN4220, two temperatures. OD600, 20 h, 42 °C; stronger effect = lower value. 170,000 compounds, 0.53% hits. relative growth, % (concentration not given with the values);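 active means growth at 42 °C up to 50% and 20 or more points under that at 30 °C, or under 10% at both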;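 further: 300 nL library stock went into each well; scaled to the means of positive and negative controls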
GIV-Gai inh: inhibitors of GIV peptide binding to Galpha-i3, primary screen, biochemical, fluorescence polarization, FITC-GIV GBA peptide, rat Galphai3. 210,000 compounds, 0.42% hits. 90 min; stronger effect = lower value; scaled: aluminum fluoride 0%, vehicle 100%. Guanine nucleotide-binding protein G(i) subunit alpha-3 (Rattus norvegicus), P08753. percent of control (FP), % (test concentration not listed);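 active means replicate mean at 85% of control or lower, very high polarization wells dropped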;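 further: wells of about 15 µL received 100 nL stock; the first replicate is given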
Target sequence (P08753 whole entry, looked up): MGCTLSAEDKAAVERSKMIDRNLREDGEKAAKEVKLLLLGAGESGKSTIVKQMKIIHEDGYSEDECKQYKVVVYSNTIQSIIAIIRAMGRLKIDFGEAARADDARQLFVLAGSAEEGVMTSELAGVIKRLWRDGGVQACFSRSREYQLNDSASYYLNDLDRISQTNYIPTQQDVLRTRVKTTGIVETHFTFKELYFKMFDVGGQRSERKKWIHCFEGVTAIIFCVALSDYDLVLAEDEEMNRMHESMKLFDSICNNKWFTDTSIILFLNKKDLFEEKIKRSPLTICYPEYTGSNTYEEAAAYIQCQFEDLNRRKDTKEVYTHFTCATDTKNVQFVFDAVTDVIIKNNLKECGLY
Sa growth 42C second temp: second read-out of Sa growth 42C, no call of its own (marks repeat the call); relative growth, %; measured here: growth at 30 °C;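 optical density after 20 h as mean of two plates; 100% = untreated growth and lower means inhibition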
Numbers without * were called inactive; . = not tested or not shown; & = joins results of further samples.

SMILES	HCMV UL50-53 inh	Sa growth 42C	Sa growth 42C second temp	GIV-Gai inh
CN1C(=O)C(CC(=O)Nc2ccc(F)cc2)N(Cc2ccccc2)C1=S (configuration not stated)	.	108	86	100
CCOc1ccc(Cn2c(=O)sc3ccccc32)cc1	-27	75	84	102
CCCn1c(/C=C/c2ccccc2)nc2ccccc21	.	80	67	102
CC(=O)Nc1cccc(-c2nc(-c3ccc4c(c3)[nH]c(=O)n4C)no2)c1C	10	.	.	107
COC(=O)c1ccc(-n2c(C)cc(C(=O)CSc3nnc4sc5ccccc5n34)c2C)cc1	-21	.	.	101
CNC(=S)NCCc1ccccc1	-42	92	88	103
CCC(=O)N1CCCC1c1nc2ccccc2n1CCCCOc1ccccc1 (configuration not stated)	-19	.	.	103
CC(C)(C)c1ccc(NC(=O)c2ccc(N3C(=O)CSCC3=O)cc2)cc1	-22	112	91	107
O=C(Nc1c(C(=O)N2CCCCCC2)oc2ccccc12)c1ccccc1	-1	81	59	104
O=C(Nc1cccc2c1C(=O)NC2=O)c1ccc(Oc2ccccc2)cc1	15	96	90	97
COc1ccc(NC(=O)/C(C#N)=N/Nc2cc(C(=O)O)ccc2C)cc1	-113	96	93	.
COc1cccc(-c2cc(C(F)(F)F)n3ncc(C(=O)NN4CCN(C)CC4)c3n2)c1	-38	105	164	107
COc1cc(C(=O)Oc2ccccc2/C=C2\Sc3ccccc3C2=O)cc(OC)c1OC	-30	.	.	109
CCc1ccccc1NC(=O)Nc1cc(C(=O)NCc2ccc(C)cc2)ccc1N1CCCC1	.	100	99	108
Cc1ccccc1C(=O)NNc1ncnc2c1cnn2-c1cccc(Cl)c1	.	103	83	98
COc1ccccc1Cn1cc(C(=O)c2ccc(C)cc2)c(=O)c2cc(C)ccc21	13	89	91	107
COC(=O)c1c(NC(=O)c2ccc(S(=O)(=O)N3CCCCC3C)cc2)sc2c1CCN(C)C2 (configuration not stated)	.	99	89	111
CN(C)S(=O)(=O)c1ccc(C(=O)COC(=O)c2ccccc2NCc2ccco2)cc1	6	102	96	.
CC(NC(=O)c1ccco1)c1ccccc1 (configuration not stated)	-14	105	84	103
CC(C(=O)O)n1nc2ccccc2n1 (configuration not stated)	-19	109	96	111
O=C(NCCCN1CCCCC1)c1ccc2c(c1)NC(=O)c1ccccc1S2	.	93	88	104
O/N=C1/Cc2ccccc2OC1c1ccc(F)cc1 (configuration not stated)	3	113	112	98
CN1CCN(C(=O)c2nc(SCc3ccc(F)cc3)ncc2Cl)CC1	-8	106	99	109
Cn1nc(C(=O)NCc2ccccc2)c2c1-c1ccccc1S(=O)(=O)C2	-12	116	81	103

Gathered by group: the compounds so far with sulfur.
SMILES	HCMV UL50-53 inh	Sa growth 42C	Sa growth 42C second temp	GIV-Gai inh
CN1C(=O)C(CC(=O)Nc2ccc(F)cc2)N(Cc2ccccc2)C1=S (configuration not stated)	.	108	86	100
CCOc1ccc(Cn2c(=O)sc3ccccc32)cc1	-27	75	84	102
COC(=O)c1ccc(-n2c(C)cc(C(=O)CSc3nnc4sc5ccccc5n34)c2C)cc1	-21	.	.	101
CNC(=S)NCCc1ccccc1	-42	92	88	103
CC(C)(C)c1ccc(NC(=O)c2ccc(N3C(=O)CSCC3=O)cc2)cc1	-22	112	91	107
COc1cc(C(=O)Oc2ccccc2/C=C2\Sc3ccccc3C2=O)cc(OC)c1OC	-30	.	.	109
COC(=O)c1c(NC(=O)c2ccc(S(=O)(=O)N3CCCCC3C)cc2)sc2c1CCN(C)C2 (configuration not stated)	.	99	89	111
CN(C)S(=O)(=O)c1ccc(C(=O)COC(=O)c2ccccc2NCc2ccco2)cc1	6	102	96	.
O=C(NCCCN1CCCCC1)c1ccc2c(c1)NC(=O)c1ccccc1S2	.	93	88	104
CN1CCN(C(=O)c2nc(SCc3ccc(F)cc3)ncc2Cl)CC1	-8	106	99	109
Cn1nc(C(=O)NCc2ccccc2)c2c1-c1ccccc1S(=O)(=O)C2	-12	116	81	103

Next structures follow.
SMILES	HCMV UL50-53 inh	Sa growth 42C	Sa growth 42C second temp	GIV-Gai inh
CCN(C(C)=O)c1nnc(CSc2nc3ccccc3s2)s1	6	99	90	.
COc1ccc(C(N)C2CC2)cc1 (configuration not stated)	21	111	106	.
O=C(CSc1nc2ncccc2n2cccc12)NCc1ccc(Cl)cc1	-22	.	.	104
CN(C)S(=O)(=O)c1ccc(=O)[nH]c1	-6	94	91	.
CN1C(=O)C(=C2C=C(c3ccccc3)OC3=C2CCCC3)C(=O)N(C)C1=O	-57	83	90	104
CCn1c(O)c(C=N/C(=N/O)c2ccc(NC(=O)C3CC3)cc2)c(=O)n(CC)c1=S	0	98	94	.
COc1ccc(C2NCCc3c2[nH]c2ccc(OC)cc32)cc1 (configuration not stated)	-24	110	84	103
Cc1ccc(-c2csc(CS(=O)(=O)C(C)(C)C)n2)c(C)c1	3	113	102	111
COc1ccc2nc3oc(C(=O)Nc4cccc(C(F)(F)F)c4)cc3cc2c1	.	88	64	108
Nc1nnc(-c2ccc3nsnc3c2)o1	2	95	88	106
Fc1cccc(F)c1CN1CC=CCC1	-4	101	101	109
CC1CCCCN1CCCNC(=O)c1sc2ncccc2c1-n1cccc1 (configuration not stated)	.	67	87	107
Cc1ccc(S(=O)(=O)N(Cc2cccc(F)c2)c2nc3nc(C)cc(C)n3n2)cc1	-9	.	.	103
CC(=O)N/N=C(\C)c1ccc2ccccc2c1OC(F)F	-68	107	76	.
CC(C)(C)c1ccc(-c2cc(C3CCNCC3)[nH]n2)cc1	-19	102	81	101
O=C(CC(NCCc1cc2ccccc2[nH]1)C(=O)O)c1ccc(Br)cc1 (configuration not stated)	1	76	85	.
CC(=Nc1ccccc1Cl)c1sc2ccccc2c1O	-25	.	.	90
COc1ccc(Br)cc1CNC(=O)CCC(=O)N1CCSc2ncccc21	-1	.	.	103
CC(C)NC(=O)c1ccc2c(=O)n3c(nc2c1)CCCCC3	4	90	83	100
C(=N\c1nc2ccccc2n1Cc1ccccc1)/c1ccc2c(c1)OCO2	-22	87	104	98
CCC(C)(C(=O)NC1CCCCC1)N(Cc1cccs1)C(=O)Cc1cccs1 (configuration not stated)	-16	108	100	114
Cc1ccc(CN(Cc2ccco2)C(=O)c2ccccc2)cc1	.	97	84	97
Cc1ccc(-n2nc(C(=O)N3CCC(C)CC3)c(=O)n(C)c2=O)cc1	.	112	89	102
C(=N\N1CCN(Cc2cccc3ccccc23)CC1)/c1ccco1	-25	93	90	.
COc1cc(C2C(=O)N(C3CCCCCC3)CC(=O)N2Cc2ccccc2)ccc1OC(C)C (configuration not stated)	.	105	74	99
NS(=O)(=O)c1cccc(C(=O)O)c1	-29	86	90	98
O=C(Cn1ncc2c1-c1ccccc1OC2)NCCN1CCOCC1	-10	103	90	98
CC(=O)NCCC(=O)N1CCCSC1=Nc1c(C)cccc1C	-29	81	94	.
CCCc1cc(Sc2ccc(NS(=O)(=O)c3cc(OC)ccc3OC)cc2)n2ncnc2n1	2	.	.	104
COc1ccccc1-n1cnnc1SCC(=O)NC1CCCCC1C (configuration not stated)	-12	95	98	.
Cc1ccccc1OCCSc1nc2ccc(NC(=O)c3cccc(F)c3)cc2s1	16	100	92	102
Cc1cc(C)c2c(=O)[nH]n(C3CCCC3)c2n1	-11&-16	99	84	105
O=C(CSc1nnc2sc3ccccc3n12)Nc1ccc(F)cc1	-11	.	.	104
COc1cc(C2CC(=O)C3=C(C2)Nc2onc(C)c2C3c2ccccc2C)ccc1O (configuration not stated)	-16	.	.	107
Cc1nc2c(C)nn(-c3ccccc3)c2s1	-7&0	90	61	104&102
O=C(NCCc1c[nH]c2ccccc12)c1ccc(COc2ccc(F)cc2)o1	-3	109	90	.
COC(OC)C1Nc2ccccc2C(=O)N1c1cccc(C(F)(F)F)c1 (configuration not stated)	2	100	90	.
N#CC(C(=O)CN1C(=O)S/C(=C\c2cccs2)C1=O)c1ccccn1 (configuration not stated)	-44	94	90	.
CN(C)c1ncc(C(=O)O)cc1NS(=O)(=O)c1ccccc1	-38	.	.	49*
CCNC(=O)/C(C#N)=C/c1ccc(OC(F)F)cc1	-16	101	86	.
CCN(CC)c1ccc(Nc2ncnc3ccccc23)cc1	-44	86	71	105
Cc1noc(C)c1CCC(=O)NC1=NCCS1	-22	94	91	.
CCOC(=O)C1CCN(CCC(=O)Nc2ccc(OC)cc2)CC1	3	102	92	106
CCN(CC(=O)Nc1cc(C)on1)CC(=O)NC1CCS(=O)(=O)C1 (configuration not stated)	6	94	94	.
CCOC(=O)c1ccc(NC2=CC(=O)CC(c3ccco3)C2)cc1 (configuration not stated)	-5	87	77	104
CCC(Sc1nnc(C)n2c1cc1occc12)C(=O)Nc1ccccc1OC (configuration not stated)	.	116	96	106
CC1CN(C)C(c2ccccc2)C(C)C12NC(=O)NC2=O (configuration not stated)	-11	106	117	.
CC1CC(C)CN(C(=O)C2c3ccccc3Oc3ccccc32)C1 (configuration not stated)	.	98	82	99
O=C(c1cccc(N2C(=O)CCS2(=O)=O)c1)N1CCCCC1	-29	.	.	107
CCOc1ccc(/C=N/N2C(=O)NC(C)(CC)C2=O)c(O)c1 (configuration not stated)	-14	100	88	.
COC(=O)c1ccccc1NC(=O)c1nn(-c2ccccc2C)c(=O)cc1OC	8	.	.	97
Cc1ccnc(NS(=O)(=O)c2ccc(NC(=O)c3nc(SC(C)C)ncc3Cl)cc2)n1	-30	84	74	106
Cc1cccc(NC(=O)Cn2ncc3c4ccccc4n(Cc4ccccc4)c3c2=O)c1C	-20	105	85	105
O=C(Cc1csc(NC(=O)Nc2cccc(Cl)c2)n1)Nc1cccc(Cl)c1	-4	.	.	102
COCCNC(=O)c1ccc2c(=O)n(-c3ccc(OC)cc3)c(SC(C)C(=O)c3ccc(C)c(C)c3)nc2c1 (configuration not stated)	-12	.	.	104
O=C1Nc2ccccc2/C1=C/C=C/c1ccco1	.	96	45	111
Cc1ccc(C(=O)c2oc3ccccc3c2NC(=O)c2nc(S(C)(=O)=O)ncc2Cl)cc1F	-6	94	59	100
CCCCn1c(SCc2cc(=O)n3cc(Cl)ccc3n2)nc2ccc(N3CCOCC3)cc2c1=O	-35	104	80	103
Cn1c(=O)cc(SCC(=O)Nc2ccc(S(N)(=O)=O)cc2)c2ccccc21	-20	.	.	98
COC(=O)c1sccc1N1C(=O)Cn2cccc2C1C(=O)NC1CCC(C)CC1 (configuration not stated)	4	85	92	103
The listing continues:
SMILES	HCMV UL50-53 inh	Sa growth 42C	Sa growth 42C second temp	GIV-Gai inh
O=C(O)c1ccc(N2CCCCS2(=O)=O)cc1	-6	92	80	103
Cc1ccc(C)c(N2CCN(C(=O)c3c(C)oc4nc(C)nc(N5CCOCC5)c34)CC2)c1	.	101	92	103
Cc1cc(C)nc(SCc2nnc(SCC(=O)NCc3ccccc3)o2)n1	.	94	83	95
CC(C)c1c(O)nc(SCCC(=O)O)[nH]c1=O	6	97	110	102
Cc1ccc2nc(-c3c[nH]c4ccccc34)c(Nc3ccc(F)cc3)n2c1	-19	100	91	106
O=S(=O)(c1ccc2[nH]c3c(c2c1)CCCCC3)N1CCN(c2ccccc2)CC1	.	121	103	104
Cc1cc2nc(COc3ccccc3NC(=O)CCC3CCCC3)cc(=O)n2o1	-8	.	.	105
Cc1nc(C)c(-c2ccn(C(=O)c3ccc(C(F)(F)F)cc3)n2)o1	-2	101	84	104
Cc1ccccc1CSc1nc2c(sc3ccccc32)c(=O)n1CCCC(=O)NCCCOC(C)C	-38	97	86	96
O=C(NCCCn1ccnc1)c1nn2c(C(F)(F)F)cc(-c3ccco3)nc2c1Cl	-71	.	.	101
COc1cccc(C(=O)Nc2ccccc2C(=O)OCc2cc(=O)n3c4c(sc3n2)CCCC4)c1	.	96	88	97
COC(=O)c1c(O)cn(-c2ccc(C)c(C)c2)c1C	11	59	78	106
Cc1ccccc1Cc1c(C)nc2c(-c3nc(-c4ccc(F)cc4)no3)cnn2c1C	17	.	.	198
Cc1ccc(C)c(N2CCN(C(=O)c3ccc(-c4nc(COc5ccccc5)c(C)o4)cc3)CC2)c1	.	82	87	110
COc1cc(OC)cc(C(=O)Nc2c(C)nc3nc[nH]n3c2=O)c1	20	.	.	104
CCOCCCNC(=O)C(c1ccc(Cl)cc1)N(Cc1ccc2c(c1)OCO2)C(=O)c1ccc(NC(C)=O)cc1 (configuration not stated)	14	102	88	104
CCC(=O)N1CCc2cc(Br)cc(S(=O)(=O)Nc3ccccc3C(=O)OC)c21	3	104	103	101
Cc1cc(C)n2cc(-c3ccc(Cl)cc3)c(C(=O)O)c2n1	3	.	.	100
CCOc1cc(C2C(C(=O)Nc3ccccc3)=C(C)Nc3ncnn32)ccc1OCc1ccccc1 (configuration not stated)	2	.	.	100
O=C1NC(C(F)(F)F)(C(F)(F)F)N=C2SC=CN12	-30	87	83	105
Cc1nn(Cc2ccccc2)c(Cl)c1C(=O)OCC#N	-12	86	84	.
Cc1csc(-c2ccc(Oc3ccc(Cl)cc3)nc2)n1	4	100	98	101
COc1ccc(CNC(=O)c2cc(-c3ccccc3F)nc3n[nH]c(-c4cccc(OC)c4)c23)cc1	-15	.	.	99

High-throughput results deposited in PubChem by ICCB-Longwood Screening Facility, Harvard Medical School.
